KCNQ2 inh: KCNQ2 potassium channel inhibitors, primary screen, cell-based, CHO-K1, FluxOR thallium flux, B-score (AID 2156); Potassium voltage-gated channel subfamily KQT member 2 (Rattus norvegicus), O88943; 20 min; active compounds read low; only compounds with negative scores are shown here; some inactives read as strong as hits; B-score at 10 µM; 1.1% of 310,000 active;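 active means fluorescence ratio B-score at most minus 3 library SDs, with starting brightness B-score within 2 library SDs, cut at about -5.5 in these data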
Target sequence (O88943 whole entry, looked up): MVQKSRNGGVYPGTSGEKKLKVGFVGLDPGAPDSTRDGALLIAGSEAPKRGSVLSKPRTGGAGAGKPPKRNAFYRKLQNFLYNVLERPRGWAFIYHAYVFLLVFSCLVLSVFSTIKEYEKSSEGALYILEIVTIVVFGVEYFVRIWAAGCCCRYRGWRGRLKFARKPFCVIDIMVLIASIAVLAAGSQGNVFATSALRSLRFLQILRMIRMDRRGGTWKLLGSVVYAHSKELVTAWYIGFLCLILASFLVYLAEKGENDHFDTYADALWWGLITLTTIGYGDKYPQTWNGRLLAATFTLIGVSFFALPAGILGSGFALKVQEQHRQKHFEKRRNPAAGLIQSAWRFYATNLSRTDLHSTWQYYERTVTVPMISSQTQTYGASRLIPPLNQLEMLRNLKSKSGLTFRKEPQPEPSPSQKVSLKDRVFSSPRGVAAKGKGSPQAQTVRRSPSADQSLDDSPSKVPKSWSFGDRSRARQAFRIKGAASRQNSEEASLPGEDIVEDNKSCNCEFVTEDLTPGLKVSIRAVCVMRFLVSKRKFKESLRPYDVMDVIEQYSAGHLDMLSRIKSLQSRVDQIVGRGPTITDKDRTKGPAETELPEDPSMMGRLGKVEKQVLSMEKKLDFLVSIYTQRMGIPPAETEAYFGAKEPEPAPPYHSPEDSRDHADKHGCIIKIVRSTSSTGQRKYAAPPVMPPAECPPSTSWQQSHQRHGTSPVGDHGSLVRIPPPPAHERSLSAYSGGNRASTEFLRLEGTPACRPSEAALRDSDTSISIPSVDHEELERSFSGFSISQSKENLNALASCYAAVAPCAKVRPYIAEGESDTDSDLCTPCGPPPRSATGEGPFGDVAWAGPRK
KCNQ2 inh baseline: second read-out of KCNQ2 inh, no call of its own (marks repeat the call); B-score; measured here: initial fluorescence intensity artifact check;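 brightness before thallium and not channel activity; 0 = typical well and far values either way flag optical interference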
* marks the source's active call; other numbers are inactive results; i = inactive. Some of the compounds tested; rates above refer to the full screens.

| SMILES | KCNQ2 inh | KCNQ2 inh baseline |
| --- | --- | --- |
| COCCN1Cc2cccc(C(=O)Nc3cccc(-c4nc5ccccc5[nH]4)c3)c2C1=O | i | 2.33 |
| CSCCC(NC(=O)c1ccccc1Cl)C(=O)N1CCN(C(c2ccccc2)c2ccccc2)CC1 (configuration not stated) | -7.16* | 0.41* |
| c1ccc(OCCCCN2CCCCC2)cc1 | i | 0.48 |
| Cn1c(=O)oc2cc(S(=O)(=O)Nc3ccccc3)ccc21 | i | 2.51 |
| CCc1cc2c(=O)c(-c3cscn3)coc2c(CN(C)C)c1O | i | -0.5 |
| C=CCN(c1ccc(C(=O)NCCCn2ccnc2)cc1)S(C)(=O)=O | i | 1.41 |
| CCCCOC(=O)Nc1nnc(COc2ccccc2)s1 | i | -0.03 |
| CCCN(CC(=O)Nc1ccccc1C)C(=O)C1CCN(c2ncnc3sc(C)c(C)c23)CC1 | -6.85* | -1* |
| CS(=O)(=O)c1ccc(C(=O)NCCN2C(=O)S/C(=C\c3cccnc3)C2=O)cc1[N+](=O)[O-] | i | -1.42 |
| COc1ccc(-n2c(O)c(C=NCC(c3ccco3)N3CCCC3)c3ccccc3c2=O)cc1OC (configuration not stated) | i | 0.09 |
| CCOC(=O)C1=C(c2ccccc2)OC(N)=C(C#N)C1c1ccc(Cl)s1 (configuration not stated) | i | -1.74 |
| O=C(CN1C(=O)C2C3C=CC(C3)C2C1=O)NCCC1=CCCCC1 (configuration not stated) | i | -0.46 |
| N#CCSc1nnc(COc2cccc3ccccc23)n1-c1cccc(Cl)c1 | i | -1.5 |
| C/C(N)=C(/C#N)C(=O)CSc1n[nH]c(-c2ccccc2Br)n1 | i | 0.93 |
| COc1ccc(CNC(=O)C2CCCN(S(=O)(=O)c3cccc4nsnc34)C2)cc1 (configuration not stated) | i | 0.29 |
| CCOC(=O)C(/C=C(\C#N)C(=O)OCC)=C(/N)N1CCN(c2c(C)cccc2C)CC1 | i | 2.44 |
| Nc1cc(-c2ccc(Br)cc2)nn1S(=O)(=O)c1ccccc1 | i | -0.21 |
| Cc1nn(C(=O)c2cc3sccc3[nH]2)c(C)c1C | i | 0.42 |
| CN(C)c1ccc(C(C(=O)NC2CCCC2)N(C(=O)c2ccco2)C2CC2)cc1 (configuration not stated) | i | 0.28 |
| C/C(N)=C(/C#N)C(=O)CSc1nc2ccccc2c(=O)n1Cc1ccc(C)cc1 | i | -0.84 |
| Cc1c(C(=O)OCC(C)C)[nH]c2c1C(=O)CC(c1ccco1)C2 (configuration not stated) | i | 0.63 |
| COc1ccc2c(c1)[nH]c1c(=O)n(Cc3ccco3)cnc12 | i | -0.02 |
| O=C(N1CCC(n2nc(-c3ccccc3)oc2=O)CC1)C1(c2ccccc2)CC1 | i | 0.09 |
| O=C(CSCc1ccc(Cl)cc1)Nc1ccc2c(c1)OCO2 | i | -1.66 |
| O=c1ccc2cc(S(=O)(=O)N3CCN(c4cc(Cl)ccc4Cl)CC3)ccc2o1 | i | -0.02 |
| CCOc1ccc(OCC)c(NC(=O)Cn2cccc2)c1 | i | 0.53 |
| CC(NC(=O)C(c1ccccc1)c1ccccc1)c1ccccc1 (configuration not stated) | i | 0.78 |
| Cn1c(-c2ccc(F)cc2)cnc1SCC(=O)N1CCCc2ccccc21 | i | -0.39 |
| Cc1ccccc1-n1nc2c(c1NC(=O)C(C)(C)C)CS(=O)(=O)C2 | i | 0.62 |
| S=C(Nc1cccnc1)Nc1ccccn1 | i | -1.08 |
| S=c1[nH]nc(-c2cc(-c3ccccc3)n[nH]2)n1/N=C/c1ccc(Cl)c(Cl)c1 | i | -0.08 |
| COc1cc2c(cc1OC)CN(CC(=O)Nc1ccc(Cl)cc1Cl)CC2 | i | 1.16 |
| Nc1cc(-c2ccccc2)nn1S(=O)(=O)c1ccc(Br)cc1 | i | 1.78 |
| O=[N+]([O-])c1cc(-c2cnc3ccccc3n2)ccc1Oc1ccc(Br)cc1 | i | -1 |
| CC(=O)Nc1ccc(S(=O)(=O)NC2CC3CCC2C3)cc1 (configuration not stated) | i | -1.34 |
| O=C(c1ccc2[nH]ccc2c1)N1CCCC(Nc2ccccc2)C1 (configuration not stated) | i | -1.04 |
| O=C(CSc1cccc[n+]1[O-])Nc1cc(S(=O)(=O)N2CCOCC2)ccc1Cl | i | 0.44 |
| COCC1CCCC1OS(N)(=O)=O (configuration not stated) | i | 1.68 |
| O=S(=O)(NC1CCCCCCC1)c1ccccc1F | i | -1.38 |
| Cc1cc(CSCc2ccc(Cl)cc2)no1 | i | 0.73 |
| Cc1c(C(=O)NCC2COc3ccccc3O2)oc2ccc(S(=O)(=O)N(C)C3CCCCC3)cc12 (configuration not stated) | i | 0.42 |
| Cc1noc2ncnc(Oc3cc(Cl)ccc3Cl)c12 | i | -0.07 |
| COCCn1ccc(O)c(Cc2ccccc2)c1=O | i | -0.01 |
| O=C(Nc1ccc([N+](=O)[O-])cc1)Nc1ccc2[nH]c(=O)[nH]c2c1 | i | 2.16 |
| Cc1ccc(C)c(S(=O)(=O)C(C#N)c2nc3ccccc3nc2N2CCCC2)c1 (configuration not stated) | i | -0.05 |
| Cc1ccccc1Cn1cc(NC(=O)c2cc(-c3ccco3)on2)cn1 | i | -0.06 |
| CN(C(=O)C(Cl)Cl)C1CC2C=CC1C2 (configuration not stated) | i | 0.82 |
| CCN(CC)CC(=O)N1c2ccccc2CCc2ccc(NC(=O)c3cc(OC)c(OC)c(OC)c3)cc21 | i | -2.42 |

4 entries already listed, ordered by the number in KCNQ2 inh baseline, lowest first:
| SMILES | KCNQ2 inh | KCNQ2 inh baseline |
| --- | --- | --- |
| O=S(=O)(NC1CCCCCCC1)c1ccccc1F | i | -1.38 |
| Cc1ccccc1Cn1cc(NC(=O)c2cc(-c3ccco3)on2)cn1 | i | -0.06 |
| Cc1c(C(=O)NCC2COc3ccccc3O2)oc2ccc(S(=O)(=O)N(C)C3CCCCC3)cc12 (configuration not stated) | i | 0.42 |
| CN(C(=O)C(Cl)Cl)C1CC2C=CC1C2 (configuration not stated) | i | 0.82 |

Additional records.
| SMILES | KCNQ2 inh | KCNQ2 inh baseline |
| --- | --- | --- |
| CSc1cccc(NC(=O)c2cc(S(=O)(=O)N3CCc4ccccc43)cn2C)c1 | i | 0.4 |
| Cc1ccc2c(CN3CCC(C)CC3)cc(=O)oc2c1 | i | 0.07 |
| COc1ccc(/C=C2/NC(=O)N(Cc3ccccc3F)C2=O)cc1OC | i | 1.6 |
| O=[N+]([O-])c1ccc2nn(Cc3ccccc3)cc2c1 | i | -2.56 |
| O=C(CCN1CCCCCC1)Nc1ccc(F)cc1 | i | 0.23 |
| CC(C)C(=O)NC(=S)Nc1ccccc1N1CCN(C(=O)c2ccc(Cl)cc2)CC1 | i | -0.15 |
| COc1ccc(N2CCN(C(c3cccs3)c3nnnn3C3CCCC3)CC2)cc1 (configuration not stated) | i | -0.54 |
| CCC(C)NC(=O)c1cn(CC)c2ccc(S(=O)(=O)N3CCCCC3)cc2c1=O (configuration not stated) | i | -0.29 |
| CCC(C)NC(=O)C1CCN(S(=O)(=O)c2cc([N+](=O)[O-])ccc2Cl)CC1 (configuration not stated) | i | -0.04 |
| Cc1cc(NC(=O)CSc2nc(=O)n(CCN(C)C)c3c2CCCC3)no1 | i | -1.73 |
| Cc1ccc(NCC(=O)NNC2=NCCC2)c(C)c1 | i | -0.03 |
| COc1cccc(-n2c(N)c(C#N)c3ccc([N+](=O)[O-])cc3c2=O)c1 | i | 0.97 |
| Cc1ccc(CCN2CC(C(=O)NCCCN3CCC(C)CC3)CC2=O)cc1 (configuration not stated) | i | 0.05 |
| COC(=O)c1ccc(NC(=O)CC2C(=O)N(c3ccc(C)cc3)C(=O)N2CC(C)C)cc1 (configuration not stated) | i | 1.37 |
| O=C(CSc1ccc(F)cc1)N1CCC(c2nc3ccccc3s2)CC1 | i | -0.03 |
| CCOc1cc2[nH]c(=O)n(Cc3ccc(C(=O)NCCCN4CCC(C)CC4)cc3)c(=O)c2cc1OCC | i | 0.77 |
| Cc1cc(C)n(CCCNC(=O)C2CC(=O)N(Cc3ccccc3)C2)n1 (configuration not stated) | i | -0.55 |
| CCC(C(=O)c1ccc(O)cc1)c1ccccc1 (configuration not stated) | i | -1.01 |
| Cc1nn2c(N3CCN(C(=O)c4ccco4)CC3)cc(C(C)(C)C)nc2c1-c1ccccc1 | -6.51* | -0.93* |
| CCOc1ccccc1N(CC(=O)NC(C)(C)C)C(=O)c1ccc(CN2CCOCC2)o1 | i | -0.17 |
| S=C1NCCOCCOCCOCCOCCNC(=S)NCCOCCOCCOCCOCCN1 | i | 0.09 |
| Cc1ccccc1-c1nnc(SCC(=O)NC2CCCC2)o1 | i | -0.46 |
| C/C(CCc1ccco1)=N\NC(=O)CNc1cccc2ccccc12 | i | -0.02 |
| C=CCNC(=O)Cn1nc(-c2ccccc2)ccc1=O | i | 0.32 |
| Cc1cc(SCc2cccc([N+](=O)[O-])c2)nc(=O)[nH]1 | i | -0.01 |
| CCc1nc(Nc2ccc(OC)cc2OC)c2oc3ccccc3c2n1 | i | -0.52 |
| O=[N+]([O-])c1cccc(CSc2nnc3ccccn23)c1 | i | -1.23 |
| CC1CCN(CCCOc2ccc(Br)cc2Cl)CC1 | i | 2.39 |
| CC(NC(=O)c1cc(=O)[nH]c2ccccc12)c1ccc(F)cc1F (configuration not stated) | i | 0.46 |
| O=C1CCc2cc(S(=O)(=O)N3CCN(c4ccc(F)cc4)CC3)cc3c2N1CC3 | i | -0.45 |
| O=c1cc(Nc2cccc(Br)c2)[nH]c(=O)[nH]1 | i | 2.65 |
| Cc1ccc(-c2cc(Cc3ccc(N(C)C)cc3)c(=O)[nH]n2)cc1 | i | 2.55 |
| O=C1CC(c2ccc(F)cc2)CC(O)=C1C1NCCc2ccccc21 (configuration not stated) | i | 3.06 |
| CC(=O)Nc1ccc(Cc2ccc3[nH]c(=O)cc(C)c3c2)cc1 | i | -3.32 |
| CCOC(=O)c1ccc(N2N=C(C)/C(=C/C=C/c3ccco3)C2=O)cc1 | i | -3.08 |
| CSCCC(NC(N)=O)C(=O)Nc1ccc(C)cc1 (configuration not stated) | i | 2.97 |
| CC(C)c1ccc(C(=O)NC2=NCCS2)cc1 | i | 0.5 |
| CCN1CCN(Cc2ccc(NC(=O)c3cc(NC(=O)c4cncc(-c5ccc(C#N)cc5)c4)cc(OC)c3)cc2C(F)(F)F)CC1 | i | -0.85 |
| O=C(O)c1cccc(NC(=S)N/N=C/c2ccccc2OCc2ccc(Br)cc2)c1 | i | 1.66 |
| COc1ccc(-c2cc(=O)oc3cc(OC(C)C(=O)NC4CC4)ccc23)cc1 (configuration not stated) | i | -0.91 |
| CN(C)c1c([N+](=O)[O-])ncn1C | i | -0.42 |
| O=C(Nc1ccc(-c2nc3ccccc3o2)cc1)c1cc(-n2cnnc2)ccc1Cl | i | 0.95 |
| COc1cccc(CNC(=O)Cn2nc(C)c3c(C)n(-c4ccc(C)cc4)nc3c2=O)c1OC | i | -2.11 |
| Cc1cccc(C2N=C(N)Nc3nc4ccccc4n32)c1 (configuration not stated) | i | -1.24 |
| O=C(CSc1nnc(NC(=O)Cc2ccccc2)s1)NCC1CCCO1 (configuration not stated) | i | -0.46 |
| O=S(=O)(O)c1cc2oc(-c3ccccc3)nc2c2ccccc12 | i | -0.84 |
| COc1ccc(CN2CCN(Cc3c[nH]c4ccccc34)CC2)cc1 | i | -0.64 |
| Nc1ccc2oc(-c3cccc4ccccc34)nc2c1 | i | 0.03 |
| CCOC(=O)c1c(C)[nH]c(C(=O)COC(=O)CNC(=O)c2ccc(Cl)cc2Cl)c1C | i | -1.33 |
| Cc1ccc(N2CC(C(=O)Nc3nc4ccc(S(C)(=O)=O)cc4s3)CC2=O)cc1C (configuration not stated) | i | 0.56 |
| CCc1ccccc1NC(=O)/C(C#N)=C/c1ccc(Sc2ccccc2)o1 | i | -0.21 |
| COC(=O)c1cn(C(=O)c2ccc(F)cc2)c2ccccc12 | i | -2.22 |
| CC1(C)CC(=O)c2sc(NS(=O)(=O)c3ccccc3)nc2C1 | i | 0.09 |
| Clc1ccc(SCc2cc(N3CCOCC3)nc(-c3ccccn3)n2)cc1 | i | 1.74 |
| O=C(NCCc1ccccc1)C1CCCN(S(=O)(=O)c2cccs2)C1 (configuration not stated) | i | 0.52 |
| O=C(NNS(=O)(=O)c1ccc(F)cc1)c1ccccc1 | i | 0.77 |
| COc1cccc(/C=C2\N=C(C3CCCCC3)OC2=O)c1OC | i | -2.75 |
| Cn1c(=O)c2c(-c3ccc(C(C)(C)C)cc3)n(N3CCOCC3)cc2n(C)c1=O | i | 1.62 |
| CCOC(=O)c1cnc(SC)nc1Sc1ccccc1Cl | i | -0.03 |
| COc1cccc(C(=O)NCC(=O)NNc2ncnc(N)c2[N+](=O)[O-])c1 | i | 1.01 |

(list continues)
| SMILES | KCNQ2 inh | KCNQ2 inh baseline |
| --- | --- | --- |
| O=C(NCC(c1cccs1)N1CCOCC1)c1ccc(Br)o1 (configuration not stated) | i | 0.16 |
| CC(C)(CNC(=O)CO/N=C1/C=C2CCC3C(C(O)C[C@@]4(C)C3CC[C@]4(O)C(=O)CO)[C@@]2(C)CC1)C(O)C(=O)O (some centres not stated) | i | -1.42 |
| COCCOC(=O)C1=C(C)NC(=O)NC1c1cccc2ccccc12 (configuration not stated) | i | 0.12 |
| Cc1nc2sc(C(c3ccc(F)cc3)N3CCOCC3)c(O)n2n1 (configuration not stated) | i | -1.2 |
| CC(C(=O)Nc1ccccc1-c1ccccc1)N1CCN(C(=O)c2ccccc2)CC1 (configuration not stated) | i | -2.18 |
| COCCNC(=O)CCCn1c(=O)c2ccccc2n(Cc2ccccc2C#N)c1=O | i | 0.01 |

Compound profiles, as listed above:
Results for COCCOC(=O)C1=C(C)NC(=O)NC1c1cccc2ccccc12 (configuration not stated) = KCNQ2 inh: i; KCNQ2 inh baseline: 0.12
Results for Nc1cc(-c2ccc(Br)cc2)nn1S(=O)(=O)c1ccccc1 = KCNQ2 inh: i; KCNQ2 inh baseline: -0.21
Results for Nc1cc(-c2ccccc2)nn1S(=O)(=O)c1ccc(Br)cc1 = KCNQ2 inh: i; KCNQ2 inh baseline: 1.78
